Six1-Eya2 blk: blocks human Six1 binding to Eya2; AlphaScreen GST-Six1/His-Eya2 binding, biochemical; stronger effect = lower value; control for the full effect not named in the record; 0.56% of 360,000 active; activity change, % (no concentration beside the values); Q15475+O00167; AID 651725; in the data active = activity change below about -65%; inconclusive = about -30% to -65%; inactive = above about -30%; further: on the % scale 0 is the no-effect control and ±100 the full control effect; compound concentration not given in the record
Target sequence (O00167 whole entry, looked up): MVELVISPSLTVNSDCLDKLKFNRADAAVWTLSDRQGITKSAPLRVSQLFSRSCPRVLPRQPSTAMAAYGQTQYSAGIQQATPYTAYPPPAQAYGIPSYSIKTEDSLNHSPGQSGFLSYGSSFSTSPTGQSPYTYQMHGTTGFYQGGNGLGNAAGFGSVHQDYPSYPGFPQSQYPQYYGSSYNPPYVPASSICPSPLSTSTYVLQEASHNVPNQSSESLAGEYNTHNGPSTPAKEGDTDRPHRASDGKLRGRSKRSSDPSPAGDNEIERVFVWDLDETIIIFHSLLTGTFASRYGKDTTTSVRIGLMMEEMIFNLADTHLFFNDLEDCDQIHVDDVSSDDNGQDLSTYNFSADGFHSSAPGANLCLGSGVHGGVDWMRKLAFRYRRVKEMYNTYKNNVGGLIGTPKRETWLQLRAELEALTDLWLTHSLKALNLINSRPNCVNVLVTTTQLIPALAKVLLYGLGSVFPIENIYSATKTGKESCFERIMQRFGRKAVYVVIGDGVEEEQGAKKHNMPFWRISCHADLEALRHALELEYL
Target sequence (Q15475 whole entry, looked up): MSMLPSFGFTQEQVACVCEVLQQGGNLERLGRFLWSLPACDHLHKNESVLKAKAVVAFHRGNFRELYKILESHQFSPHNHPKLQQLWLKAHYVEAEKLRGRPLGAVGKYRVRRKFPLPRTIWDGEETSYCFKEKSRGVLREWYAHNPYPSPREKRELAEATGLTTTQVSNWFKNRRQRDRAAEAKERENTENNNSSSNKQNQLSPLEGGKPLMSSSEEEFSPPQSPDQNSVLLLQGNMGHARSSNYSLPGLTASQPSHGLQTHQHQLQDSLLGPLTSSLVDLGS
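Six1/Eya2 binding was read as AlphaScreen signal after compounds were pinned into GST-Six1 plus His-tagged Eya2 (5X stock 250/500 nM) in pH 8.0 Tris/NaCl/TCEP buffer, beads added, then incubated 1 h, 37 C, dark.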
TRPML1 agonist: agonists of human TRPML1 channel. Q9GZU1. TRPML1-expressing cells, Ca2+ dye fluorescence, FDSS; host cell line not named in the record; reference of the full effect not given here. activation, % (concentration not given with the values). 0.12% of 410,000 active. AID 624414; in the data active = activation above about 50%; inconclusive = about 30% to 50%; inactive = below about 30%; further: 0% is about no effect; the text of the record puts the active cut at 80%
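TRPML1-DL cells, Tet-induced overnight (~16 h, 37 degrees C), loaded 45-90 min at room temperature with Ca8 no-wash calcium dye plus quencher. FDSS fluorescence: 10 s baseline, compound pin-transfer, 110 s agonist read, then EC80 54-4 (4uM final) and 110 s antagonist read.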
D2 PAM: human D2 receptor positive allosteric modulation; P14416; DiscoveRx D2 beta-arrestin cells, luminescence, 90 min; 100% = 57 uM dopamine signal; potentiation, % (no concentration beside the values); 0.23% of 360,000 active; AID 624464; active = potentiation of 50% or more; inconclusive = 30% to 50%; inactive = 30% or less;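 further: compound concentration not given in the record; tested on top of an EC20 dose of dopamine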
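D2 cells co-treated with compound plus 50 nM dopamine (EC20) for 90 min at 37 deg C to detect potentiation. Beta-arrestin recruitment was read as enzyme-fragment luminescence after 1 h at ambient temperature. Full response was set by 57 uM dopamine.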
PINK1 modulator: changes PINK1 expression; 0.2% of 410,000 active; PINK1 immunofluorescence, high-content cytometry, 24 h; AID 624263; Potency, µM (series often up to 76.6 µM), without a hit: at the top dose activation (PINK1 increase), hits mostly activators; active = well fitted activation curve with a large enough effect; inconclusive = small, poorly fitted or top-dose-only effect; inactive = flat fitted curve, though single readings scatter; cell line not stated here;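 further: potency means the concentration at half of the fitted maximal effect; % of control where 0% means no effect; nearly all actives have a fitted effect of over 65% in size; a mitochondrial uncoupler was the plate control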
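Decision-based qHTS: stable cells, 24 h exposure to five compound concentrations, CCCP as control. Fixed cells stained for PINK1 plus nuclear, mitochondrial and cell markers, cytometer read.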
TRPML1 blocker: human mucolipin-1 channel inhibition; activity change, negative = inhibition, % (concentration not given with the values); TRPML1-inducible cells, Ca2+ dye fluorescence, FDSS; stronger effect = lower value; inhibition of EC80 agonist-evoked calcium signal; Q9GZU1; AID 624415; 0.02% of 390,000 active; in the data active means activity change below about -50%; inconclusive means about -30% to -50%; inactive means above about -30%;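 further: stimulus is agonist 54-4 at its EC80 concentration; on the % scale 0 is the no-effect control and ±100 the full control effect; compound concentration not given in the record; the text of the record puts the active cut at -80%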
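TRPML1-DL cells, Tet-induced overnight (~16 h, 37 °C) at 1,500 cells/well, were loaded with Ca8 no-wash dye plus quencher for 45-90 min at room temperature. Compounds were pinned during FDSS kinetic reading; agonist 54-4 at EC80 (4 uM final) then added.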
D2 ag: agonists of human D2 dopamine receptor (beta-arrestin); P14416; DiscoveRx PathHunter D2 beta-arrestin, luminescence, 90 min; 100% = 57 uM dopamine signal; activation, % (no concentration beside the values); 0.084% of 360,000 active; in the data active = activation above about 40%; inconclusive = about 15% to 40%; inactive = below about 15%; further: compound concentration not given in the record; the text of the record calls up to 30% inactive
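DiscoveRx PathHunter D2 beta-arrestin cells (2,100/well) attached overnight, then compound-stimulated 90 min at 37 C in HBSS/10 mM HEPES/0.1% Tween-20 buffer; beta-galactosidase complementation read by luminescence after 1 h at ambient temperature. Dopamine 57 uM final (EC100) as control.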
The depositor's hits bear a star; ? = inconclusive; . = not tested or not shown; & = joins results of further samples; [ ] = another dose, or the depositor's remark.

SMILES | Six1-Eya2 blk | TRPML1 agonist | D2 PAM | PINK1 modulator | TRPML1 blocker | D2 ag
CCOc1ccccc1N(CC(=O)Nc1cc(OC)ccc1OC)S(C)(=O)=O | -2 | 0.4 | 0 | -2.4% | 7 | -5.5
O=C(C1CCCN(S(=O)(=O)c2ccc(Br)s2)C1)N1CCN(c2ccc(F)cc2)CC1 (configuration not stated) | . | 2.1 | . | 2.3% | 31 | .
CC(=O)c1ccc(N2CCN(C(=O)C3CCCN(S(=O)(=O)c4c(C)[nH]c(=O)[nH]c4=O)C3)CC2)cc1 (configuration not stated) | -4 | 0.3 | -1 | 1.5% | 1 | -1.6
COc1ccc(S(=O)(=O)N2CCN(c3ccc(F)cc3)CC2)cc1OC | 7 | -0.3 | -12 | 3.5% | -21 | -2.8
N=c1n(CCN2CCOCC2)c2ccccc2n1CC(O)COc1ccccc1 (configuration not stated) | 9 | -0.5 | -28 | -4.0% | -7 | -3.0
CCOC(=O)c1cnc2c(cnn2C)c1Cl | -4 | 2.0 | 8 | -1.3% | 19 | 6.1
COC(=O)c1ccc(CN2[C@H](C(=O)OC)C[C@@]3(O)[C@@H](O)[C@@H](O)[C@@H](O)C[C@@H]23)cc1 | 9 | -0.2 | 2 | 2.9% | 12 | 0.3
Cc1ccc(C(=O)N2CCCC(c3nc4c(nnn4Cc4ccccc4)c(=O)[nH]3)C2)cc1 (configuration not stated) | 2 | 0.3 | -6 | 1.0%[38.3 µM] | -3 | -2.6
COC(=O)[C@@]1(Cc2ccc(F)cc2)[C@H]2c3cc(C(=O)N4CCCC4)n(CCCNc4ncc(C(F)(F)F)cc4Cl)c3C[C@H]2CN1C(=O)c1ccccc1 | -18 | -0.4 | -5 | 1.8% | 11 | 0.2
CCOc1ccc(C(=O)N2CCCC(c3nc(-c4ccc(C)o4)no3)C2)cc1 (configuration not stated) | 6 | 1.1 | -1 | 0.2% | -5 | -2.8
CCOC(=O)Cn1c(=O)oc2cc(S(=O)(=O)Nc3ccc(N(CC)CC)cc3C)ccc21 | -14 | 1.3 | 1 | 0.7% | -9 | 6.9
CC(CNc1nc2ccc(Cl)cc2n2cnnc12)c1ccccc1 (configuration not stated) | 6 | -0.5 | -3 | 8.1% | -17 | -2.3
CCCCN1C(=S)NC[C@@H]1C(C)CC (some centres not stated) | -1 | 0.1 | -2 | -0.5% | -4 | -0.7
C=CCc1cccc2cc(C(=O)OCC)c(=O)oc12 | 5 | -0.2 | -23 | 1.7% | -3 | -0.6
COc1ccccc1CN1CC(C(=O)N(C)Cc2ccncc2C)CCC1=O (configuration not stated) | -4 | -0.2 | -1 | 1.5% | 2 | 4.5
O=C(Nc1nnc(COc2ccc(F)cc2)s1)c1ccco1 | 13 | 0.7 | 1 | 0.5% | 5 | -2.4
Cc1ccc(NC(=O)Nc2ccno2)cc1 | -3 | 0.6 | ? | -0.6% | -1 | ?
Cc1cccc(CN2CCN(CC(=O)NCc3ccc(F)cc3)C2=O)c1 | 0 | -0.9 | -9 | 0.1% | 9 | -1.2
C#CCN(C(=O)c1cc(COc2cccc(C(F)(F)F)c2)on1)C1CCCCC1 | 15 | 3.3 | 14 | ? | 5 | 1.4
CC1(C)CC(=O)C2=C(C1)NC(=O)CC2c1cc(F)ccc1F (configuration not stated) | -2 | -0.6 | -8 | -0.5% | 5 | 0.0
O=C(/C=C/[C@H]1O[C@@H](n2ccc(=O)[nH]c2=O)[C@H](O)[C@@H]1O)NCCc1cccs1 | 10 | -0.3 | -9 | 2.1% | -6 | -8.2
Cc1c(NC(=O)CN2CCC(C(N)=O)CC2)cccc1[N+](=O)[O-] | -5 | -0.3 | 0 | -2.6% | -10 | 2.0
Fc1ccc(-c2noc3ncnc(NCC4CCN(Cc5ccc(Cl)cc5)CC4)c23)cc1 | . | 2.8 | . | 16% | 39 | .
O=C1Nc2ccccc2Oc2cc(Oc3cccc(Cl)c3)ccc21 | . | 6.2 | . | ? | 5 | .
COc1ccc(-c2cc3ccccc3oc2=O)cc1NC(=S)NC(=O)c1ccc2c(c1)OCCO2 | -6 | 1.2 | -2 | -0.8% | -21 | 0.1

A section of the results above, as a working copy:
SMILES | Six1-Eya2 blk | TRPML1 agonist | D2 PAM | PINK1 modulator | TRPML1 blocker | D2 ag
O=C(/C=C/[C@H]1O[C@@H](n2ccc(=O)[nH]c2=O)[C@H](O)[C@@H]1O)NCCc1cccs1 | 10 | -0.3 | -9 | 2.1% | -6 | -8.2
Cc1c(NC(=O)CN2CCC(C(N)=O)CC2)cccc1[N+](=O)[O-] | -5 | -0.3 | 0 | -2.6% | -10 | 2.0
Fc1ccc(-c2noc3ncnc(NCC4CCN(Cc5ccc(Cl)cc5)CC4)c23)cc1 | . | 2.8 | . | 16% | 39 | .
O=C1Nc2ccccc2Oc2cc(Oc3cccc(Cl)c3)ccc21 | . | 6.2 | . | ? | 5 | .
COc1ccc(-c2cc3ccccc3oc2=O)cc1NC(=S)NC(=O)c1ccc2c(c1)OCCO2 | -6 | 1.2 | -2 | -0.8% | -21 | 0.1

Later entries.
SMILES | Six1-Eya2 blk | TRPML1 agonist | D2 PAM | PINK1 modulator | TRPML1 blocker | D2 ag
Cc1n[nH]c(=O)c2c(NC(=O)CSc3ccc(Br)cc3)oc(C)c12 | 10 | 0.3 | -20 | -1.1% | 1 | -0.4
COc1ccc(C2=NN(C(=O)CSC3=NN4CCCC(=O)N=C4S3)C(c3cccc(OC)c3OC)C2)cc1 (configuration not stated) | -11 | 0.0 | -5 | -0.1% | 9 | -4.8
COc1ccc(S(=O)(=O)N2CCCCC2)cc1NC(=O)c1ccc([N+](=O)[O-])o1 | 3 | 0.4 | 8 | 4.9% | 26 | 5.6
C=CCn1c(SCC(=O)NCCOC)nc2scc(-c3ccco3)c2c1=O | -9 | -0.1 | -7 | -0.1% | -14 | -2.8
COCCOC(=O)C(C#N)c1nc2ccccc2nc1N1CCN(Cc2ccccc2)CC1 (configuration not stated) | -4 | 2.4 | -33 | -1.4% | 2 | -0.2
CC1CCN(CCCNC(=O)c2ccc3c(=O)n(Cc4ccc(Cl)cc4)c(=S)[nH]c3c2)CC1 | 1 | 1.9 | -3 | -1.5% | 10 | 0.3
COc1ccc(NC(=O)CSc2nnc3n2CCCCC3)cc1S(=O)(=O)N(C)C | 16 | 0.1 | -15 | 0.2% | -4 | -2.3
Clc1cnc(N/N=C/c2ccco2)c(Cl)c1 | 5 | 0.7 | -16 | -0.1% | -16 | -1.8
CCc1ccc(C=C2SC(=S)N(CCCC(=O)Nc3ccc(C(=O)O)cc3)C2=O)cc1 | -12 | 0.4 | -1 | -0.1% | 4 | -6.9
O=c1cc(O)c2sc(Nc3ccc(F)cc3)nc2[nH]1 | 1 | -0.3 | 14 | 19% | 9 | 4.0
CCOc1ccc(C(C)C)cc1S(=O)(=O)n1nc(C)cc1C | 3 | 0.0 | -23 | 2.9% | 9 | 0.0
Nn1c(SCC(=O)Nc2ccccc2F)nnc1-c1cccnc1 | 0 | 0.2 | 7 | 14%[38.3 µM] | -1 | 3.5
CN1CCN(C2=Cc3ccccc3Sc3cc(F)c(F)cc32)CC1 | -24 | 0.2 | -43 | 15% | 9 | -3.7
COCCNC(=O)NC(=O)COC(=O)C12CC3CC(CC(NC(C)=O)(C3)C1)C2 | 11 | 0.2 | 12 | -0.8% | 15 | 0.8
CC(C)c1nc(NCc2ccccc2)c(C#N)c2c1CCCC2 | -1 | 6.1 | -2 | 10% | -10 | -0.7
COc1ccccc1-c1cc(NC=O)c2ncc(-c3ccc(S(C)(=O)=O)cc3)n2c1 | -18 | 0.0 | 13 | 4.9% | . | 4.9
CCCn1c(N)c(N(CCOC)C(=O)c2ccc(-c3ccccc3)cc2)c(=O)[nH]c1=O | 3 | 0.3 | 0 | 0.8% | 2 | -2.6
O=C(Nc1ccccc1)N1CCN(S(=O)(=O)c2ccccc2)CC1 | -10 | 1.2 | -10 | 2.6% | -10 | 7.9
Cc1ccc(NC(=O)CCn2cnc3cc(C)c(C)cc32)cc1 | 2 | 0.7 | -18 | 16%[38.3 µM] | -9 | -3.0
COc1ccc([N+](=O)[O-])cc1NC(=O)c1cn(-c2ccc(Cl)cc2)c(=O)c2ccccc12 | 12 | -0.4 | -28 | -0.2% | 4 | -0.2
COc1cc(NS(=O)(=O)c2ccc(NC(=O)/C=C/c3ccc([N+](=O)[O-])cc3)cc2)ncn1 | -7 | 3.2 | 102* | -0.8% | -8 | -5.3
CCOC(=O)C1=CN(Cc2ccco2)S(=O)(=O)NC1c1cccc(OC)c1 (configuration not stated) | 20 | 0.6 | . | 3.7% | -10 | 2.3
Cc1ccc(C(=O)OCc2nnc(-c3ccc(Br)cc3)o2)cc1 | 7 | 2.1 | -12 | 0.1% | -6 | 2.3
COc1ccc(-c2c(C)cc3oc(=O)cc(-c4ccccc4)c3c2C)cc1C=O | 2 | 0.8 | . | ? | 31 | -0.4
Cc1cccc(N(C)S(=O)(=O)c2cccc3nsnc23)c1 | -1 | 1.9 | -10 | -2.0% | 15 | -1.7
Other compounds.
SMILES | Six1-Eya2 blk | TRPML1 agonist | D2 PAM | PINK1 modulator | TRPML1 blocker | D2 ag
O=C(Nc1ccc2c(c1)OCCO2)C1c2ccccc2OCC(=O)N1Cc1ccc2c(c1)OCO2 (configuration not stated) | 5 | -0.4 | . | 0.3% | . | .
CCCc1ccc(OCC(=O)NNC(=O)c2cccnc2)cc1 | -1 | 0.7 | -9 | -1.0% | -1 | -0.8
c1ccc2ncc(-n3cnnn3)cc2c1 | 0 | -0.6 | -9 | 2.3% | 0 | -2.8
COc1ccc(N(C)C(=O)c2cc3c(s2)-c2ccccc2OC3)cc1 | . | 2.0 | . | -0.2% | 0 | .
COC(=O)c1ccc(NC(=O)Cn2nc(C(=O)Nc3ccc(C)cc3)ccc2=O)cc1 | -1 | -0.7&1.2 | -2 | 0.3%&-0.8% | -2&27 | -3.7
COc1cccc(C(C(=O)NC(C)(C)C)N(Cc2ccco2)C(=O)CCC(=O)Nc2cc(C)on2)c1OC (configuration not stated) | 5 | 1.0 | -3 | -0.5% | 27 | -4.5
COc1ccc2oc(C(=O)OCC(=O)Nc3ccc(NC(C)=O)cc3)c(C)c2c1 | 2 | 1.0 | 1 | 7.0% | 10 | -1.7
O=C(O)c1ccc2c(c1)C(=O)N(CCc1c[nH]c3ccccc13)C2=O | -24 | 0.3 | -5 | -1.8% | -13 | -0.1
O=C(NCCc1c[nH]c2ccccc12)c1cccc(Br)c1 | -10 | 2.9 | -3 | 0.7% | -12 | -1.0
CCCS(=O)(=O)N1CCCC(C(=O)NC2CCCC(C)C2C)C1 (configuration not stated) | -2 | -1.5 | -8 | -1.3% | -4 | -4.0
CN(C)S(=O)(=O)c1ccc(N2CCCC2)c(C(=O)Nc2nc(-c3cc(F)ccc3F)cs2)c1 | 3 | -0.2 | 6 | -2.5% | 3 | 0.4
Nc1cccc(P(=O)(c2ccccc2)c2ccccc2)c1 | 7 | -0.3 | 0 | -1.3% | -1 | 6.2
O=C(NC1CCCCC1)C(c1ccnc2ccccc12)N1CCc2ccccc2C1 (configuration not stated) | 16 | -0.6 | -10 | -0.2% | . | -5.0
